From PubChem
Tat transport – inhibitors of E. coli Tat protein transport. E. coli MC4100 TorA-mCherry Tat export, fluorescence. inhibition, % at 10 µM. 340,000 compounds, 0.036% hits;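 active = mean replicate inhibition at least 50% and at least half of replicates individually reaching 50%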;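 also: exported cargo escapes ClpAP degradation while cytoplasmic cargo is degraded and loses fluorescence; 0% = median of neutral control wells and 100% = median of NaSCN control wells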
AddAB inh – less growth of phage-infected E. coli with AddAB; E. coli expressing H. pylori AddAB, absorbance growth; inhibition, % at 11.9 µM; 330,000 compounds, 0.29% hits; in the data active = inhibition above about 12%;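 also: 0% = vehicle wells of infected cells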
PKA-R1A act – activators of PKA-R1A complex. P00514+P68181. PKA-R1A dissociation, Cy5-IP20 fluorescence polarization; scaled: DMSO 0%, 113 µM cGMP 100%. activation, % at 11.4 µM. 340,000 compounds, 0.083% hits. AID 504707;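 active = percent activation above the mean of all tested compounds plus 3 SD, cut at about 19% in these data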;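 also: higher means more PKAc released from R1A so a rise in polarization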
E coli growth – bacterial growth inhibition, counter-screen for AddAB inhibitors | 330,000 compounds, 0.27% hits | inhibition, % at 11.9 µM | E. coli V3065 growth, OD600 absorbance, 18 h;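 active = inhibition above the campaign's mean inhibition across all tested compounds plus 3 SD, cut at about 9.9% in these data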;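 also: uninfected addAB+ strain grown without phage in ampicillin broth; 0% = DMSO wells and 100% = ciprofloxacin 0.95 µg/ml wells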
SUMO Mot1 rescue – SUMOylation pathway inhibition by Mot1-301 growth rescue; S. cerevisiae Mot1-301 growth rescue, ATP luminescence, 38.5C; percent above DMSO median, 100 means doubled; growth rescue, % at 18.8 µM; 320,000 compounds, 1% hits; AID 2716;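 active = every valid replicate shows activation above 250% relative to neutral control wells; inactive = the rest, any valid replicate at or below 250%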;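 also: OY570 slx delta 5 strain wells were the positive control but not used for scaling; some compounds called inactive have numbers as strong as hits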
phage Ecoli inh – E. coli growth loss with phage present; growth absorbance; inhibition, % at 11.9 µM; 360,000 compounds, 0.26% hits; AID 651602; in the data active = inhibition above about 11%
DSG3 Ab inh – inhibitors of pemphigus antibody binding to human desmoglein-3. DSG3-coupled beads, scFv-anti-DSG3-GFP binding, flow cytometry; active compounds read low. binding (percent of control), % at 10 µM. AID 588358. 310,000 compounds, 0.48% hits. P32926;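 active = binding more than 3 SD below its plate's average and above zero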;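 also: hits lower antibody fragment binding to DSG3; some compounds called inactive have numbers as strong as hits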
Target sequence (P32926 whole entry, looked up, the tested form may be a part): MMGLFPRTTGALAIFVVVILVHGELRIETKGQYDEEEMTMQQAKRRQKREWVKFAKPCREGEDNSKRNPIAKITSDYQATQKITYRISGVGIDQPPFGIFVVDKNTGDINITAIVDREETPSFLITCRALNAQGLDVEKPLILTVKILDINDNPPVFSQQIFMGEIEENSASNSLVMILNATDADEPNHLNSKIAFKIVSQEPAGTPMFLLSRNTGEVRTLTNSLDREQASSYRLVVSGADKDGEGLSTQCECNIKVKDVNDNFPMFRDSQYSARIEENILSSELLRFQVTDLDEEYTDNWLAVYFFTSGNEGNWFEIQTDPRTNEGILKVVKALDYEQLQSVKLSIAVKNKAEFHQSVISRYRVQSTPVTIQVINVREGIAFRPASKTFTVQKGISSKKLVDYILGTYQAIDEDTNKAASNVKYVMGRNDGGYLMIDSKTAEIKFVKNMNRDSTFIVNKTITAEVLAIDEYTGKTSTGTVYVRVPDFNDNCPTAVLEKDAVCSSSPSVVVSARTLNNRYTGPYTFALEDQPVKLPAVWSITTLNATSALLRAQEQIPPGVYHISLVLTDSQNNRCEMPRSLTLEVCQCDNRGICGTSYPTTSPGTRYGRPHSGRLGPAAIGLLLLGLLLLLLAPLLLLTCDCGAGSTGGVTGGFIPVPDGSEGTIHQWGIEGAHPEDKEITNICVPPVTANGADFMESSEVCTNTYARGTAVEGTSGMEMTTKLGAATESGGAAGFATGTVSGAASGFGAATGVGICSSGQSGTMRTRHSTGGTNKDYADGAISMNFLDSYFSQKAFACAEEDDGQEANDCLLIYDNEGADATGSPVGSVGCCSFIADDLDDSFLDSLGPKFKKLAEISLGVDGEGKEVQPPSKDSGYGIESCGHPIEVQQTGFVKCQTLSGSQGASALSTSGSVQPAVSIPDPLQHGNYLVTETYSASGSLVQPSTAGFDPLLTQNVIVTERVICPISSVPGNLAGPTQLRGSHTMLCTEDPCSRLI
PfHsp90 yeast 2 – inhibits growth of yeast expressing Plasmodium falciparum Hsp90; inhibition, % at 9.4 µM; 310,000 compounds, 0.32% hits; S. cerevisiae expressing PfHsp90, BacTiter-Glo ATP, 48 h; yeast lacking PDR1 and PDR3 efflux regulators;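 active = every replicate shows inhibition above about 80%, whatever the replicate mean, limit read from the data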;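 also: 0% = DMSO neutral controls and 100% = 20 µM radicicol positive controls; yeast relying on Plasmodium falciparum Hsp90 in place of its own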
Arrestin-AP2 inh – inhibitors of human beta-arrestin and AP2 interaction; FITC-arrestin peptide / GST-AP2 beads, flow cytometry; AP2 beta2 appendage carries R879A mutation; inhibition, % at 10 µM; 340,000 compounds, 0.31% hits; AID 504490;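 active = inhibition above a set limit, near 3 SD of compounds lacking own fluorescence, cut at about 54% in these data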;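 also: plate controls were DMSO wells for no effect and 5 µM unlabelled arrestin peptide for full effect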
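System: GST-tagged AP2 beta2-adaptin appendage (R879A) on 4 µm glutathione beads / Reagent: FITC-arrestin peptide, 50 nM / Detection: HyperCyt-sampled flow cytometry, FL1 channel, ex 488/em 535 nm / Timing: 12 min plus 1 h, RT / Buffer or medium: PBS plus Tween 20 (0.05%) and BSA (0.1%)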
The depositor's hits bear a star; / = not tested or not shown; & = joins results of further samples; ! = not active in a repeat. A portion of the library (hit frequency here may not be typical).

#1 O=C(O)CCCC[C@@H]1SC[C@@H]2NC(=O)N[C@@H]21
#2 CC(C)(C)c1ccc(C(O)CCCN2CCC(C(O)(c3ccccc3)c3ccccc3)CC2)cc1 (stereo unspecified)
#3 CC#C[C@]1(O)CC[C@H]2[C@@H]3CCC4=CC(=O)CCC4=C3[C@@H](c3ccc(N(C)C)cc3)C[C@@]21C
#4 CC(=O)Nc1c(I)c(NC(C)=O)c(I)c(C(=O)O)c1I
#5 Nc1nc2ncc(CNc3ccc(C(=O)N[C@@H](CCC(=O)O)C(=O)O)cc3)nc2c(=O)[nH]1
#6 COc1cc([C@@H]2c3cc4c(cc3[C@@H](O[C@@H]3O[C@@H]5CO[C@@H](C)O[C@H]5[C@H](O)[C@H]3O)[C@H]3COC(=O)[C@H]23)OCO4)cc(OC)c1O
#7 CN(C)c1nc(N(C)C)nc(N(C)C)n1
#8 CCn1nc(C(=O)O)c(=O)c2cc3c(cc21)OCO3
entry no.	1	2	3	4	5	6	7	8
Tat transport	2.6	8.0	-4.7	-13.5&7.9	5.2	-0.9	-1.9	28.1
AddAB inh	3.9	-0.1	-2.2	-2.5&-1.4&-0.6	3.2	-2.5	0.8	96.2*
PKA-R1A act	-0.6	0.5	-6.0	-9.4&-9.0	8.1	-7.0	-4.8	-6.3
E coli growth	-0.7	-1.9	0.3	-0.8&3.0&0.0	0.8	-3.9	2.4	97.8*
SUMO Mot1 rescue	-9.9	-10.0	161.4	0.8&-3.1&-3.7	20.0	1.7	-8.1&-3.4	-6.9&35.4
phage Ecoli inh	0.5	3.8	3.3	1.2&3.6	-1.0	4.3	3.5	53.3*
DSG3 Ab inh	98.8	/	/	100.6&123.1	/	96.0	/	102.5
PfHsp90 yeast 2	-34.9	4.8	4.8	-0.6&-8.6	8.4	11.2	0.1	-18.1
Arrestin-AP2 inh	-3.7	-9.6	5.3	-6.3&1.9	-1.5	4.5	13.3	-0.2

#9 CC(=O)OCC(=O)C1(O)CCC2C3CCC4=CC(=O)C=CC4(C)C3C(O)CC21C (stereo unspecified)
#10 COc1cc(/C=C/C(=O)CC(=O)/C=C/c2ccc(O)c(OC)c2)ccc1O
#11 COC1=CC(=O)CC(C)C12Oc1c(Cl)c(OC)cc(OC)c1C2=O (stereo unspecified)
#12 CCCCC[C@H](O)/C=C/[C@H]1[C@H](O)CC(=O)[C@@H]1CCCCCCC(=O)O
#13 O=C1NCCN1c1ncc([N+](=O)[O-])s1
#14 CCCCCCCCCCCCCCCC(=O)NCCO
#15 CCOC(=O)[C@H](CCc1ccccc1)N[C@H]1CCc2ccccc2N(CC(=O)O)C1=O
#16 Cn1c(=O)c2[nH]cnc2n(C)c1=O
entry no.	9	10	11	12	13	14	15	16
Tat transport	0.1	-6.4	0.5	/	20.7	-4.7	-4.6	0.4
AddAB inh	1.5	5.1	0.2	-1.9	100.0*	0.9	1.9	-0.9
PKA-R1A act	/	2.6	-7.1	/	-8.2	-2.9	-3.4	-0.8
E coli growth	-2.1	8.9	3.6	-0.4	100.7*	-2.1	1.4	1.3
SUMO Mot1 rescue	-9.4	210.4	86.9	9.5	3.1	-9.1	3.9	5.5&-4.2
phage Ecoli inh	-3.0	10.4	2.1	/	98.1*	3.0	4.4	5.2
DSG3 Ab inh	95.7	125.2	138.8	/	104.4	94.7	92.8	115.2
PfHsp90 yeast 2	-12.4	-2.5	1.5	/	-1.6	-5.7	-2.4	22.5
Arrestin-AP2 inh	30.9	39.0	9.0	/	4.7	3.6	14.2	4.9

#17 NS(=O)(=O)c1cc2c(cc1Cl)NC=NS2(=O)=O
#18 NCC(O)c1ccc(O)c(O)c1 (stereo unspecified)
#19 CC(=O)Oc1ccc(C(c2ccc(OC(C)=O)cc2)c2ccccn2)cc1
#20 CCn1cc(C(=O)O)c(=O)c2ccc(C)nc21
#21 COc1ccc2c3c1OC1CC(O)C=CC31CCN(C)C2 (stereo unspecified)
#22 CN1CCN2c3ncccc3Cc3ccccc3C2C1 (stereo unspecified)
#23 CCS(=O)(=O)CCn1c([N+](=O)[O-])cnc1C
#24 c1coc(CNc2ncnc3nc[nH]c23)c1
entry no.	17	18	19	20	21	22	23	24
Tat transport	-1.3	-4.7	1.6	2.8	-10.1&5.8	-3.7	-15.3	4.6
AddAB inh	-1.3	/	-1.1	98.0*	2.8&2.4	-0.8	1.9	-0.2
PKA-R1A act	3.7	0.2	-6.6	-9.4	3.6&-13.7	-4.5	-3.8	-1.2
E coli growth	-2.5	/	0.5	82.3*	-0.9&-1.2	1.5	-0.3	-0.8
SUMO Mot1 rescue	2.9	/	160.5	241.6	-5.9	-1.3	142.3	-4.8
phage Ecoli inh	4.1	3.8	2.1	82.0*	0.2&1.5	3.5	2.7	3.0
DSG3 Ab inh	93.8	91.9	109.8	/	110.5&104.2	96.3	96.5	94.5
PfHsp90 yeast 2	4.2	-16.0	22.6	-26.9	-2.0&4.2	-9.0	2.1	12.3
Arrestin-AP2 inh	-0.5	-1.7	5.0	-5.3	-9.9&7.2	19.7	4.2	10.6

3 entries from above, with values under each structure:
The line under a structure holds: Tat transport, AddAB inh, PKA-R1A act, E coli growth, SUMO Mot1 rescue, phage Ecoli inh, DSG3 Ab inh, PfHsp90 yeast 2, Arrestin-AP2 inh
18. NCC(O)c1ccc(O)c(O)c1 (stereo unspecified)
 : -4.7, /, 0.2, /, /, 3.8, 91.9, -16.0, -1.7
19. CC(=O)Oc1ccc(C(c2ccc(OC(C)=O)cc2)c2ccccn2)cc1
 : 1.6, -1.1, -6.6, 0.5, 160.5, 2.1, 109.8, 22.6, 5.0
20. CCn1cc(C(=O)O)c(=O)c2ccc(C)nc21
 : 2.8, 98.0*, -9.4, 82.3*, 241.6, 82.0*, /, -26.9, -5.3

(list continues)
#25 OC[C@@H](O)[C@@H](O[C@H]1O[C@H](CO)[C@@H](O)[C@H](O)[C@H]1O)[C@H](O)[C@@H](O)CO
#26 COC(=O)C1C(O)CCC2CN3CCc4c([nH]c5ccccc45)C3CC21 (stereo unspecified)
#27 CN(C)CCCOc1nn(Cc2ccccc2)c2ccccc12
#28 CNCC(=O)O
#29 COc1ccc(Cl)cc1C(=O)NCCc1ccc(S(=O)(=O)NC(=O)NC2CCCCC2)cc1
#30 Nc1nc2c(ncn2COCCO)c(=O)[nH]1
#31 CC(CCC(=O)O)C1CCC2C3CCC4CC(O)CCC4(C)C3CC(O)C12C (stereo unspecified)
#32 CN(C)CCCN1c2ccccc2Sc2ccc(Cl)cc21
entry no.	25	26	27	28	29	30	31	32
Tat transport	-3.0	-3.3	-1.7	-6.7	-3.8	-0.4	/	6.4&-6.9
AddAB inh	-1.4	2.2	0.0	1.4	0.9	-3.0	/	-1.9&2.1
PKA-R1A act	4.8	0.4	-2.6	-3.7	-16.3	4.3	/	-4.2&-1.1
E coli growth	1.8	1.0	-0.3	0.3	-1.4	-3.2	/	-3.6&1.0
SUMO Mot1 rescue	135.0	-2.6	0.1	-15.1	390.4*!	58.4	/	200.7&95.5
phage Ecoli inh	3.0	1.1	4.1	3.6	3.3	3.3	3.2	3.5&5.2
DSG3 Ab inh	101.8	108.4	/	98.5	/	116.0	/	112.1&98.7
PfHsp90 yeast 2	-3.3	0.2	2.5	2.0	-3.0	15.4	/	-7.1&2.2
Arrestin-AP2 inh	7.8	27.1	-1.2	-11.7	1.7	8.1	/	6.5&28.9

#33 Cc1cccc2c1N(CCOc1ccccc1)C(=O)C2=O
#34 C[C@H]1[C@H](NC(=O)C(=NOC(C)(C)C(=O)O)c2csc(N)n2)C(=O)N1S(=O)(=O)O
#35 Fc1ccc([C@@H]2CCNC[C@H]2COc2ccc3c(c2)OCO3)cc1
#36 COc1ccc(CCN2CCC(Nc3nc4ccccc4n3Cc3ccc(F)cc3)CC2)cc1
#37 CC(=O)O[C@H]1C(=O)[C@@]2(C)[C@H]([C@H](OC(=O)c3ccccc3)[C@]3(O)C[C@H](OC(=O)[C@H](O)[C@@H](NC(=O)c4ccccc4)c4ccccc4)C(C)=C1C3(C)C)[C@]1(OC(C)=O)CO[C@@H]1C[C@@H]2O
#38 CC(CN(C)C)CN1c2ccccc2Sc2ccccc21 (stereo unspecified)
#39 CC(C)(Sc1cc(C(C)(C)C)c(O)c(C(C)(C)C)c1)Sc1cc(C(C)(C)C)c(O)c(C(C)(C)C)c1
#40 Clc1ccc(C(Cn2ccnc2)OCc2c(Cl)cccc2Cl)c(Cl)c1 (stereo unspecified)
entry no.	33	34	35	36	37	38	39	40
Tat transport	-1.0	-8.8	-17.4&-15.6&-24.2	-0.9&2.0	2.8	-2.2	-1.2	22.7
AddAB inh	-1.4	99.8*	-0.3&2.2&0.9	2.1	-2.7	0.2	0.2	0.9
PKA-R1A act	-9.4	-2.6	-18.6&-4.7&0.6	-2.7	-15.6	3.0	6.7	-14.8
E coli growth	-2.7	99.3*	1.6&1.8&2.5	0.9	-2.5	0.3	3.6	-1.6
SUMO Mot1 rescue	-12.8	182.0	-2.0&-17.5	50.5	23.2	-3.1	33.2	346.3*
phage Ecoli inh	1.2	100.0*	6.9&4.5&6.4	3.3	4.5	4.7	6.9	0.2
DSG3 Ab inh	107.8	112.8	105.1&103.0	114.7	112.1	107.3	86.6	95.6
PfHsp90 yeast 2	-22.8	1.5	-0.5&1.5&-9.3	20.2	29.8	3.0	7.7	73.4
Arrestin-AP2 inh	-7.6	15.7	-4.6&18.3&2.3	-0.5	11.7	18.8	1.3	-12.5

#41 NCc1ccc(S(N)(=O)=O)cc1
#42 O=c1n(CCCN2CCN(c3cccc(Cl)c3)CC2)nc2ccccn12
#43 O=C1CC[C@@H](C(=O)O)N1
#44 CSc1ccc(C(=O)c2[nH]c(=O)[nH]c2C)cc1
#45 Nc1ncnc2c1ncn2C1O[C@H](CO)[C@@H](O)[C@@H]1O (stereo partly specified)
#46 Clc1ccccc1C(c1ccccc1)(c1ccccc1)n1ccnc1
#47 Cn1c(NCCN(CCO)CCCc2ccc([N+](=O)[O-])cc2)cc(=O)n(C)c1=O
#48 CSc1ccc2c(c1)N(CCC1CCCCN1C)c1ccccc1S2 (stereo unspecified)
#49 COC(=O)[C@H]1[C@H]2C[C@H]3c4[nH]c5ccccc5c4CCN3C[C@H]2CC[C@@H]1O
#50 Nc1ccn([C@@H]2CS[C@H](CO)O2)c(=O)n1
#51 CCN(CC)CCNC(=O)c1ccc(N)cc1
entry no.	41	42	43	44	45	46	47	48	49	50	51
Tat transport	-3.2&0.3	-10.4	-11.2	-3.3	-5.1	1.7	4.6	1.1&0.5	-8.4	/	5.2
AddAB inh	1.6&-2.7	1.1	3.6	-3.5	-1.1	-1.8	-1.4	3.8	-2.5	-3.3	-3.8
PKA-R1A act	7.2&8.7	-7.6	-5.4	6.3	0.7	2.7	-3.9	-5.1	-14.0	/	4.9
E coli growth	-0.2&1.4	2.4	2.4	-1.5	-2.3	0.6	-0.3	2.2	-1.3	0.3	-0.8
SUMO Mot1 rescue	9.0	12.9	321.6	-0.2	-8.6	661.9*	9.4	-3.4	-4.7	-10.5	0.6&-11.6
phage Ecoli inh	3.6&2.6	1.9	2.6	1.0	0.8	1.8	4.2	4.0	4.9	/	2.1
DSG3 Ab inh	100.5&108.0	93.5	103.6	105.2	/	101.1	100.9	101.1	/	/	92.2
PfHsp90 yeast 2	8.7&-14.3	4.9	2.8	0.6	-9.9	89.9*	6.2	-5.7	21.1	/	20.6
Arrestin-AP2 inh	5.2&2.6	2.5	7.1	-3.2	8.1	-1.2	-5.5	-10.1	-2.3	/	23.7
